Source: PubChem (Broad Institute)
T cruzi repl = T. cruzi replication inhibition; T. cruzi beta-gal in NIH3T3, luminescence, 90 h; inhibition, % (concentration not given with the values); 1.4% of 300,000 active; AID 1885;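 active = mean inhibition across valid replicates above about 55%, limit read from the data; inconclusive = mean below that limit but half or more replicates reach it; inactive = mean below it, under half of replicates reach it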;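 note: signal also drops with host cell toxicity which is not excluded here; 0% = plate median of DMSO wells and 100% = zero luminescence signal; higher percent means less beta-gal luminescence so fewer parasites; stock transfer was 50 nL into about 50 µL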
Calb FLC = affects C. albicans growth with fluconazole | C. albicans CaCi-2 (fluconazole-resistant clinical isolate) + fluconazole, Alamar Blue growth, 48 h | growth inhibition, % (concentration not given with the values) | 0.57% of 300,000 active;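 active = most replicates above 75%; inconclusive = exactly half above 75%; inactive = most below 75%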;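 note: all wells also contain fluconazole at 8 µg/ml as a sub-toxic cotreatment; 0% = median of DMSO wells and 100% = median of geldanamycin control wells; wells of about 8 µL received 7.5 nL stock; the first replicate is given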
Beta apoptosis = blocks beta cell apoptosis; INS-1E cytokine-induced death, ATP luminescence, 48 h; percent of positive-control rescue, neutral wells zero; protection from apoptosis, % (no concentration beside the values); 0.8% of 300,000 active; AID 435005;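 active = all replicates at 75% or more, or half of them and the mean; inconclusive = half reach 75% but not the mean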;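 note: 0% = cytokine-treated negative control wells and 100% = positive control rescue; higher means more ATP so stronger rescue from cytokine killing; wells of about 40 µL received 100 nL stock; the first replicate is given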
ALR inh = human ALR oxidase inhibition via reduced H2O2. P55789. purified ALR, DTT oxidation, H2O2 HRP-luminol luminescence. inhibition, % (test concentration not listed). 3.8% of 290,000 active. AID 485317;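 active = mean and each replicate at 75% or more; inconclusive = only one of the two met; inactive = neither met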;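 note: stock transfer was 7.5 nL into about 7.5 µL; 0% = neutral wells and 100% = wells with inactivated enzyme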
Target sequence (P55789 whole entry, looked up): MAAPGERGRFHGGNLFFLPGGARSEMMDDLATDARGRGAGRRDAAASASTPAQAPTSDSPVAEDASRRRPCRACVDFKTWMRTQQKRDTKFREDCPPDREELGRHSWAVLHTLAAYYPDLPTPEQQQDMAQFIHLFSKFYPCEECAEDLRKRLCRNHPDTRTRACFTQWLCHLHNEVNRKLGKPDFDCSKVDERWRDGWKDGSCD
AF4-AF9 inh = blocks AF4 peptide binding to human AF9. inhibition, % at 10 µM. 0.47% of 350,000 active. AlphaScreen, biotin-AF4 peptide binding to FLAG-AF9. P42568;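 active = every replicate reaching a set inhibition limit, whatever the replicate mean, cut at about 25% in these data; inconclusive = mean inhibition reaches that limit but some replicates miss it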;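 note: 0% = plate neutral control median and 100% = total signal loss; the record names both 10 and 1 µM as test concentration; the first replicate is given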
Target sequence (P42568 whole entry, looked up): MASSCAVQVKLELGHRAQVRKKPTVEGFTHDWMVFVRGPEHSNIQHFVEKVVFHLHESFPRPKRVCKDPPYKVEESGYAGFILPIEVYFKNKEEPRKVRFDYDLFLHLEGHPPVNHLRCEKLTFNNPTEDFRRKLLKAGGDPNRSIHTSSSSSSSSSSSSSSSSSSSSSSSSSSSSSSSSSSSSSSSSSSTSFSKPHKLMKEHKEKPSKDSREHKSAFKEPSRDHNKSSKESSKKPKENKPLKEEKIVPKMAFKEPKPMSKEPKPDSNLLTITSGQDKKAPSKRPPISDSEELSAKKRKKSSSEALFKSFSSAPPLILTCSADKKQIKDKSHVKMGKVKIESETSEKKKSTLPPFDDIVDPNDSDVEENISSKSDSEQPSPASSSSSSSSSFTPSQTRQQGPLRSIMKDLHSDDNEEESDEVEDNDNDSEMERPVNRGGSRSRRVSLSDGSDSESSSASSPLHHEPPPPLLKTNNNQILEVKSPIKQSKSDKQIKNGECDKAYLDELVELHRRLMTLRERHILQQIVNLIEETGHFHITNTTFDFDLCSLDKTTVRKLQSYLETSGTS
FGF22 binding = shifts melting point of recombinant human FGF22; Q9HCT0; 1.5% of 340,000 active; recombinant FGF22 thermal shift, SYPRO orange fluorescence; percent of sucrose octasulfate shift, DMSO zero; calls only at 9.99 µM;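 active = melting point raised past a set limit in the mean and every replicate; inconclusive = no clear call; three in four hits are not shown here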
Target sequence (Q9HCT0 whole entry, looked up): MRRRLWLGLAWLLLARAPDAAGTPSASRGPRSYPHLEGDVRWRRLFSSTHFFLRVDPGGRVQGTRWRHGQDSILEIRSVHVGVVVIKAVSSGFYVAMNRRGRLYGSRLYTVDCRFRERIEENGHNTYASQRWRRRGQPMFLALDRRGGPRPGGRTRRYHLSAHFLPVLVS
rRNA inh HTS = inhibits bacterial ribosomal RNA function over humanized ribosomes; AID 720706; E. coli WT GFP vs humanized-ribosome RFP mutants, fluorescence, 24 h; active compounds read low; DMSO median 0, no signal -100; 1.6% of 350,000 active; GFP signal change (wild-type ribosome), % (test concentration not listed);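 active = significant combined selectivity score with lowered wild-type GFP, culture density cut under 30%, mutant RFP and density less affected; inactive = any of these conditions unmet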; note: one replicate is shown; some compounds called inactive have numbers as strong as hits
RanGTP-Imp inh = inhibitors of RanGTP-importin-beta interaction, primary screen, biochemical, FRET, CFP-Ran, YFP-importin-beta, homogeneous; cell-free CFP-Ran/YFP-importin-beta FRET ratio; inhibition, % (concentration not given with the values); 1.1% of 300,000 active;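 active = most replicates above 15%; inconclusive = exactly half above 15%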;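 note: 0% = DMSO wells and 100% = Ran loaded with GDP instead of GTP; wells of about 40 µL received 100 nL stock; the first replicate is given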
rRNA inh HTS OD600 = also measured in rRNA inh HTS; calls as there; OD600 change, %; measured here: OD600 growth;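 optical density of the mix in the first replicate; 0 = DMSO median and -100 = no signal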
rRNA inh HTS RFP = further read-out of rRNA inh HTS, marked with its call; RFP signal change, %; measured here: RFP humanized mutant strains;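 first replicate; 0 = DMSO median and -100 = no signal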
The depositor's hits bear a star; i = inactive; ? = inconclusive; · = not tested or not shown; & = joins results of further samples.

structure,T cruzi repl,Calb FLC,Beta apoptosis,ALR inh,AF4-AF9 inh,FGF22 binding,rRNA inh HTS,rRNA inh HTS OD600,rRNA inh HTS RFP,RanGTP-Imp inh
O=C(NC(C(=O)c1ccccc1)n1c(=O)cc[nH]c1=S)c1ccccc1 (stereo not given),-13,7,-13,·,·,·,·,·,·,-3.3
C(=N\Nc1nc2ccccc2s1)/c1ccco1,-9,-10,1,63,·,·,·,·,·,-1.0
Cc1ccccc1-n1ncc2c(SCC(=O)NC3CCCC3)ncnc21,-12,-1,1,-1,-1.1,i,12,13,-1.2,0.4
O=C(Nc1cnn(Cc2ccc(Cl)cc2)c1)c1cccs1,-2,-5,-12,-4,7.3,i,1,8,1.2,3.7
Cc1cccc(NC(=S)NCc2cccs2)c1C,-28,10,-1,-4,·,·,·,·,·,-1.0
O=C1CC(C(=O)N2CCN(c3ccc(F)cc3)CC2)CN1CCc1ccccc1 (stereo not given),7,1,·,66,-8.5,i,-5,-7,0.1,1.5
CCCCc1ncc(CN2CCC(CC3CCCCO3)(C(=O)OCC)CC2)[nH]1 (stereo not given),16,-29,-14,-2,2.7,i,12,6,4.3,0.4
O=C(N/N=C/c1ccc(OC(=O)c2cccc(F)c2)cc1)c1cccnc1,-4,-20,1,·,-3.0,i,9,6,-0.8,-4.4
C[C@H](CO)N1C[C@H](C)[C@@H](CN(C)Cc2ccccc2)Oc2c(NC(=O)Cc3ccccc3)cccc2C1=O,·,·,4,-6,6.1,i,-42,-55,23,·
CN(C)C(=O)c1nc(C#N)c(N(C)C)o1,-9,4,-5,5,1.6,i,11,4,1.4,0.5
Cc1c(CC(=O)O)c(=O)oc2cc3occ(-c4ccc(F)cc4)c3cc12,-7,3,-2,-4,-2.0,i,-6,-3,-0.7,7.1
O=C(CCC1CCN(Cc2ccc(Cl)cc2)CC1)NC1CC1,32,-6,-3,·,-7.1,i,18,2,1.7,-6.4
CS(=O)(=O)N(CC(=O)N1CCOCC1)Cc1ccccc1,-14,-4,-7,-2,·,·,·,·,·,2.6
CN(C(=O)CC1C(=O)NCCN1Cc1cccc(C(F)(F)F)c1)C1CCOCC1 (stereo not given),-14,5,-6,-16,-9.3,i,14,10,3.3,1.0
CCc1ccc2[nH]c(C(=O)N(C)c3ccc(F)cc3F)cc2c1,-22,-3,-2,-2,0.7,i,10,7,2.6,2.2
CCC(C)NC(=O)c1cn(CC)c2cc(N3CCN(C)CC3)c(F)cc2c1=O (stereo not given),25,6,-6,-3,-3.3,i,-44,-78,-11,4.9
COc1ccc(N2CCN(C(=O)c3cc4c(=O)n(Cc5ccccc5)ccc4nc3C)CC2)cc1,12,1,2,20,6.2,i,-24,-27,-1.3,1.7
COC(=O)C1=C(O)C2(C(=O)O)CC(C(=O)OC)=C(O)C(C(=O)O)(C1)C2,11,-9,-4,23,1.6,i,21,10,1.6,2.0
O=C(OCC(=O)N1CCOCC1)c1cc(=O)[nH]c2ccccc12,·,·,-2,-4,-0.8,i,1,3,-2.8,·
CCc1ccc(C2CC(c3cccc(Cl)c3)n3nc(N)nc3N2)cc1 (stereo not given),40,3,105*,·,-1.4,i,-23,-35,-11,6.9
c1ccc(-c2nc3ccccc3[nH]2)nc1,-11,-20,·,-4,7.3,i,9,12,3.2,6.3
COc1cc(Cl)c(C)cc1NCC(=O)Nc1cccc(S(=O)(=O)N2CCCC2)c1,·,·,-2,-3,0.7,i,9,4,3.7,·
C[C@@H]1CN([C@@H](C)CO)C(=O)Cc2cc(NC(=O)Nc3cccc4ccccc34)ccc2O[C@@H]1CN(C)S(C)(=O)=O,·,·,-3,-17,2.2&-7.1,i,-4&-17,-6&-18,3.0&-7.1,·
CC(=O)c1cccc(S(=O)(=O)Nc2ccccc2N2CCOCC2)c1,·,·,-3,8,7.5,i,0,-12,-0.9,·
CN1Cc2ccccc2CC1CNCc1c(C(=O)N2CCCC2)nc2ccccn12 (stereo not given),-6,-29,-9,-27,·,·,·,·,·,0.0
COc1ccc(/C=C(/NC(=O)c2cccs2)C(=O)Nc2ccc(C)cc2)cc1OC,-2,-13,-14,-8,-0.5,i,8,5,-3.0,2.7
O=C(NCCN1CCN(C(=O)C(c2ccccc2)c2ccccc2)CC1)C(=O)Nc1ccccc1,14,4,-2,-4,·,·,·,·,·,-2.4
CCOC(=O)C1CCCN(CCC(=O)Nc2cccc(Cl)c2C)C1 (stereo not given),4,-4,-5,0,-3.8,i,6,1,0.8,0.2
O=C(NC1CC1)C1=C[C@@H](C2CC2)C[C@@H](OCCCCO)O1,-8,5,-4,-5,0.7,i,·,·,·,6.2
CC(C)(C)N=Cc1c(O)ccc2oc3c(c12)CCCC3,-1,-7,-10,-37,-2.1,i,11,7,3.4,3.0
CCCNC(=O)c1cccc(S(=O)(=O)N2CC3(C)CC2CC(C)(C)C3)c1 (stereo not given),-18,-1,16,-4,-0.1,·,-5,-9,-4.2,-3.0
CC(=O)c1c(C)[nH]c(C(=O)OCCCCN2C(=O)c3ccccc3C2=O)c1C,-8,14,104*,7,·,·,·,·,·,-0.2
CN(C)CCCn1c(N)c(C#N)c2nc(C#N)c(C#N)nc21,19,·,-16,7,·,·,·,·,·,27*
COc1ccc(S(=O)(=O)N/N=C\c2ccc(OC)c(COc3ccc(C)cc3[N+](=O)[O-])c2)cc1,50,-2,-24,-2,·,·,·,·,·,-5.8
CCOC(=O)C1CCCN(C(=O)Cc2c(F)cccc2Cl)C1 (stereo not given),-17,5,·,-1,3.3,i,9,17,6.6,2.0
O=C(O)C1(S(=O)(=O)c2ccc(Cl)cc2)CCC1,-6,-4,-2,-3,4.0,i,6,5,-6.6,?
Oc1ccc(Cl)cc1CNc1nccs1,-22,-11,-6,74,10,i,-12,-13,1.9,5.9
COc1cccc(-n2ccnc2SCC(=O)Nc2ccccc2)c1,-15,1,3,41,·,·,·,·,·,1.3
COC(=O)c1ccc(NC(=O)c2ccc(NC(=O)c3ccco3)cc2)cc1,10,-9,0,·,-1.5,i,1,1,0.6,8.0
O=c1ccc(-c2ccc(S(=O)(=O)Nc3cccc(F)c3)o2)n[nH]1,-6,-21,0,1,-6.9,i,5,4,2.1,2.4
COc1ccc(N(CC(=O)Nc2ccccc2C)S(=O)(=O)c2ccccc2[N+](=O)[O-])c(OC)c1,31,4,-7,6,0.7,i,-13,-9,-3.7,?
O=C(CSc1nnc(CNC(=O)c2cccs2)o1)Nc1cccc(Cl)c1,-8,-15,-14,98*,2.9,i,0,-3,-1.6,-0.3
COc1ccc(NC(=O)/C(=C\c2cccs2)NC(=O)c2ccco2)cc1,15,27,-7,-5,0.6,i,9,3,-1.2,-1.0
O=C(NCc1n[nH]c(=S)n1-c1ccc(Cl)c(Cl)c1)c1cccs1,8,24,·,44,-9.6,·,-4,-4,-2.6,3.2
C/C(=C\C(=O)c1ccc(F)cc1)Nc1ccc(N2CCOCC2)cc1,51,-6,1,67,·,·,·,·,·,5.6
Brc1c(CSc2nnc(-c3ccco3)o2)nc2ccccn12,6,-4,4,97*,·,·,·,·,·,3.3
Cc1onc(-c2ccccc2)c1C(=O)OCC(=O)Nc1cccc(Cl)c1,·,·,-12,-2,-1.3,i,-18,-36,2.3,·
CC1SC(C)C(=O)N(CC(=O)Nc2ccc([N+](=O)[O-])cc2)C1=O (stereo not given),-9,-8,-6,-1,1.0,i,-2,-3,-4.8,-4.3
COc1ccc(S(=O)(=O)N2CCOCC2)cc1NC(=O)CSc1nnc2n1CCCCC2,·,·,2,-3,-2.7,i,15,17,2.0,·
O=P(O)(CCc1ccccc1)CN1CCCCC1,-13,9,-3,-17,·,·,·,·,·,-3.0
Cc1ccc(NS(=O)(=O)c2cccc(C(=O)NC3CC3)c2)c(C)c1,·,·,-4,-3,-38,i,14,-5,-2.9,·
COc1cccc(C(=O)N/N=C(\CC(C)C)c2ccccc2)c1,-2,-4,7,·,·,·,·,·,·,-4.0
O=C(CCC(=O)OCc1cccc([N+](=O)[O-])c1)Nc1ccccc1Cl,-14,22,1,-7,·,·,·,·,·,-4.2
Cc1cccc(N(C(=O)c2csnn2)C(C(=O)NCc2ccccc2)c2ccncc2)c1 (stereo not given),7,-2,7,-3,-23,i,-3,-4,-0.6,1.3
O=C(c1cc(-c2ccc(Cl)s2)nc2ccccc12)N1CCOCC1,0,3,-7,-2,7.7,i,0,1,-0.3,8.5
Cc1ccc(NC(=O)CNC(=O)c2cccc(Cl)c2)nc1,-9,11,-6,-4,-14,i,0,1,0.3,1.8
Cc1cc(C)nc(NS(=O)(=O)c2ccc(NC(=O)C(C)Oc3ccccc3F)cc2)n1 (stereo not given),-2,-4,·,4,-4.0,i,-1,-2,0.5,7.6
CSc1ccc(CN(C)CC(=O)Nc2ccccc2Br)cc1,18,10,-7,-2,·,·,·,·,·,-1.5
CCOC(=O)Cc1csc(NC(=O)c2csc(C)c2)n1,18,-12,-5,0,·,·,·,·,·,-3.1
Cc1ccc(CN2CCCCC2C(=O)Nc2ccc(Oc3cccnc3)cc2)o1 (stereo not given),22,-2,·,-3,2.8,i,-22,-14,0.4,-0.6

Profiles from above. Order of screens: T cruzi repl	Calb FLC	Beta apoptosis	ALR inh	AF4-AF9 inh	FGF22 binding	rRNA inh HTS	rRNA inh HTS OD600	rRNA inh HTS RFP	RanGTP-Imp inh
`Oc1ccc(Cl)cc1CNc1nccs1` as listed: -22	-11	-6	74	10	i	-12	-13	1.9	5.9
`O=P(O)(CCc1ccccc1)CN1CCCCC1` as listed: -13	9	-3	-17	·	·	·	·	·	-3.0

Further results
structure,T cruzi repl,Calb FLC,Beta apoptosis,ALR inh,AF4-AF9 inh,FGF22 binding,rRNA inh HTS,rRNA inh HTS OD600,rRNA inh HTS RFP,RanGTP-Imp inh
COc1ccccc1CNC(=O)CN1CCN(S(=O)(=O)c2cccs2)CC1,22,-5,0,-5,0.2,i,-1,-1,2.1,?
CC(C)(C)NC(=O)C(c1ccncc1)N(C(=O)c1csnn1)c1ccccc1 (stereo not given),-2,3,-5,-5,-44,i,13,4,0.6,4.9
Nc1ccccc1-c1nnn(CC(=O)Nc2ccc3c(c2)OCCO3)n1,9,-13,·,-20,0.2,i,-25*,-19*,-1.5*,-1.7
CN(CC(=O)N1CCN(c2ccccc2)CC1)S(=O)(=O)c1cnc[nH]1,-17,-22,-3,98*,·,·,·,·,·,-12
COC1=C/C(=C/c2c(N)n3c(nc2=O)sc2cc(S(C)(=O)=O)ccc23)C=CC1=O,-5,-3,5,99*,5.9,i,-3,12,9.2,-0.2
COc1ccccc1/C=C1\SC(=S)N(CC(=O)NC2CCS(=O)(=O)C2)C1=O (stereo not given),-10,1,-6,3,3.9,i,3,7,2.5,-1.6

The list is partial; the hit share may differ from the screen's.
